From PubChem BioAssay
rRNA inh HTS: selective bacterial rRNA inhibition in E. coli; GFP signal change (wild-type ribosome), % (no concentration beside the values); hit rate 1.6% among 350,000; E. coli WT GFP vs humanized-ribosome RFP mutants, fluorescence, 24 h; active compounds read low; DMSO median 0, no signal -100;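 active = significant combined selectivity score with lowered wild-type GFP, culture density cut under 30%, mutant RFP and density less affected; inactive = any of these conditions unmet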; note: one replicate is shown; some compounds called inactive have numbers as strong as hits
Vif TR-FRET: inhibitors of Vif binding to APOBEC3G peptide, primary screen, biochemical, TR-FRET, GST-Vif 1-94, biotin-A3G peptide, dose response retest (AID 1117319) | TR-FRET GST-Vif / biotin-A3G peptide binding; higher % means a stronger effect; test concentration not given here; strong numbers were not always called active | one-dose inhibition, %; IC50 in µM for titrated hits | hit rate 0.57% among 260,000;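 active = above the screen mean plus three standard deviations and confirmed in dose response; inconclusive = results disagree or hit not tested in dose response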;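 note: Vif residues 1-94 fused to GST binding biotinylated APOBEC3G peptide 110-148; 0% = full assay without inhibitor and 100% = GST in place of GST-Vif; retest series ran down from 100 µM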
HNF4A DNA FP: change in binding of human HNF4 alpha to DNA. hit rate 0.3% among 360,000. AID 1224865. activity change, % at 10 µM. P41235. HNF4a-FITC DNA binding, fluorescence polarization, 1 h; in the data active = activity change above about 30%, passing the limit was not always enough;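 note: controls were the assay level and a saturating level of protein; the project sought stronger binding though the title names inhibitors; some compounds called inactive have numbers as strong as hits; positive values seem to mean higher polarization but the record does not say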
FGF22 binding: FGF22 (human) thermal shift binding; Q9HCT0; recombinant FGF22 thermal shift, SYPRO orange fluorescence; percent of sucrose octasulfate shift, DMSO zero; calls only at 9.99 µM; hit rate 1.5% among 340,000; AID 651658;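 active = melting point raised past a set limit in the mean and every replicate; inconclusive = no clear call; three in four hits are not shown here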
Target sequence (Q9HCT0 whole entry, looked up): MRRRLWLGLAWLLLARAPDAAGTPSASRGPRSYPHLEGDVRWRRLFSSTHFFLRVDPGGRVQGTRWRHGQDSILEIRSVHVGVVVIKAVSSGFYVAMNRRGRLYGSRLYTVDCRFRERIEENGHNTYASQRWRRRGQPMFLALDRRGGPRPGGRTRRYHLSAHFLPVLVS
MLL AF4-AF9 inh: blocks AF4 peptide binding to human AF9. P42568. AlphaScreen, biotin-AF4 peptide binding to FLAG-AF9. inhibition, % at 10 µM. hit rate 0.47% among 350,000;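 active = every replicate reaching a set inhibition limit, whatever the replicate mean, cut at about 25% in these data; inconclusive = mean inhibition reaches that limit but some replicates miss it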;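 note: 0% = plate neutral control median and 100% = total signal loss; the record names both 10 and 1 µM as test concentration; the first replicate is given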
Target sequence (P42568 whole entry, looked up): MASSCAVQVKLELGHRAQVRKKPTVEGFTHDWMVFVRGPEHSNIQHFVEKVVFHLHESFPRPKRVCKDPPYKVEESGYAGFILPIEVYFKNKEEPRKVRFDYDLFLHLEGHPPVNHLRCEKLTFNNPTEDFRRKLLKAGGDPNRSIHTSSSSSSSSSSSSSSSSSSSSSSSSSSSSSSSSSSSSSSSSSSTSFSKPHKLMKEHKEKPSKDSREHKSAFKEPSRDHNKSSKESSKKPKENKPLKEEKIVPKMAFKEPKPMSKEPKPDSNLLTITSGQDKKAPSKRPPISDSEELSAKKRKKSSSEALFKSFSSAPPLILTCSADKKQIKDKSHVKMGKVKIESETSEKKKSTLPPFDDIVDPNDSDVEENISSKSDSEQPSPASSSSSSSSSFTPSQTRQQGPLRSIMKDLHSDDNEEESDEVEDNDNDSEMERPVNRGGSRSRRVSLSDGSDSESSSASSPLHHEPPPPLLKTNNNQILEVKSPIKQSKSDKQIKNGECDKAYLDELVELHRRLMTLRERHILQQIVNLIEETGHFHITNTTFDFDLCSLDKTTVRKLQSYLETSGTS
Ecoli growth: E. coli growth inhibition; Escherichia coli growth, OD600, 23 h; active compounds read low; OD600 absorbance (no concentration beside the values); hit rate 0.21% among 330,000; AID 1053175;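 active = OD600 absorbance below the run mean of sample wells minus 3.6 SD, in any replicate, cut at about 0.56 in these data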;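 note: stock transfer was 300 nL into about 60 µL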
ALR H2O2 inh: human ALR oxidase inhibition via reduced H2O2; purified ALR, DTT oxidation, H2O2 HRP-luminol luminescence; hit rate 3.8% among 290,000; P55789; inhibition, % (no concentration beside the values);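 active = mean and each replicate at 75% or more; inconclusive = only one of the two met; inactive = neither met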;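 note: stock transfer was 7.5 nL into about 7.5 µL; 0% = neutral wells and 100% = wells with inactivated enzyme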
Target sequence (P55789 whole entry, looked up): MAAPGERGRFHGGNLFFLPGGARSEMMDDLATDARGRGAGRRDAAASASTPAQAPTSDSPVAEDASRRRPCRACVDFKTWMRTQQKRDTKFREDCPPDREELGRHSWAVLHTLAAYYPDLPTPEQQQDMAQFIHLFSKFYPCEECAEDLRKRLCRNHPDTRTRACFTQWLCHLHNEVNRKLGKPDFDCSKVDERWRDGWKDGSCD
rRNA inh HTS OD600: second read-out of rRNA inh HTS, no call of its own (marks repeat the call); OD600 change, %; measured here: OD600 growth;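 optical density of the mix in the first replicate; 0 = DMSO median and -100 = no signal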
rRNA inh HTS RFP: also measured in rRNA inh HTS; calls as there; RFP signal change, %; measured here: RFP humanized mutant strains;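 first replicate; 0 = DMSO median and -100 = no signal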
Active calls of the source: *; i = inactive; ? = inconclusive; · = no result given. This is a subset; count on the stated rates, not on these rows.

SMILES | rRNA inh HTS | rRNA inh HTS OD600 | rRNA inh HTS RFP | Vif TR-FRET | HNF4A DNA FP | FGF22 binding | MLL AF4-AF9 inh | Ecoli growth | ALR H2O2 inh
COc1ccc(NC(=O)Nc2ccc3c(c2)C(=O)N([C@@H](C)CO)C[C@H](C)[C@@H](CN(C)S(=O)(=O)c2ccc(Cl)cc2)O3)cc1 | -2 | -8 | 3.2 | · | · | i | 0.1 | · | ·
C[C@@H]1CN([C@H](C)CO)C(=O)c2cc(NC(=O)CCCCCC(=O)Nc3ccccc3N)ccc2O[C@H]1CN(C)S(=O)(=O)c1ccc(Cl)cc1 | -2 | -3 | 1.6 | · | · | i | -2.1 | · | ·
CSCCC(C(=O)NC(C)(C)C)n1c(-c2ccc3c(c2)OCO3)nc2ccccc21 (stereo not drawn) | 2 | 9 | 1.1 | · | 8.2 | i | 10 | · | ·
N#Cc1nc(-c2ccccc2)oc1NCC1CCCO1 (stereo not drawn) | · | · | · | · | -3.2 | i | 0.5 | 0.7 | 17
CN1C(=O)c2cc(NC(=O)C3CCOCC3)ccc2OC[C@@H]2O[C@@H](CC(=O)O)CC[C@@H]21 | 2 | 5 | -6.6 | · | · | i | -2.8 | · | ·
O=C(CSCc1ccc(Cl)cc1)Nc1ccc(O)cc1C(=O)O | 4 | 4 | -4.0 | 3% | -2.4 | i | -2.2 | 0.65 | 96*
CC1=CCC[C@H]2[C@H](C1)C(=O)C[C@@H](C)[C@]2(C)CC/C(=C/CO)CO | -9 | 4 | 7.5 | · | 0.5 | i | -1.0 | 0.7 | ·
CCN(CC(=O)Nc1cc(Cl)ccc1C)C(=O)C1CC1 | 8 | 4 | 0.3 | -2% | -0.5 | i | -0.3 | 0.66 | -7
Cc1ccc(OC(=O)c2ccccc2)cc1C | 2 | -3 | -3.2 | 0% | 0.7 | i | 7.7 | 0.69 | ·
COc1cccc2sc3ccc(NCc4ccc5c(c4)OCO5)cc3c(=O)c12 | -5 | -5 | -7.1 | · | 4.8 | i | 8.5 | 0.7 | 92*
COC(=O)/C(=C\Nc1ccc(Cl)cc1Cl)NC(=O)c1ccc(OC)cc1 | -4 | -6 | 4.3 | 10% | 1.1 | i | -0.7 | 0.71 | 3
COc1ccccc1NC(=O)c1sc2ncn(Cc3ccc(C)cc3)c(=O)c2c1C | · | · | · | 17% | 9.8 | · | · | 0.68 | 0
Cn1c(C(=O)NCC2CCCO2)cc2c(=O)[nH]c3ccccc3c21 (stereo not drawn) | · | · | · | 12% | 0.6 | · | · | 0.71 | ·
COc1ccc(S(=O)(=O)NC2(C(F)(F)F)NC(=O)N(CCc3ccc(OC)c(OC)c3)C2=O)cc1 (stereo not drawn) | 1 | 3 | 1.9 | 1% | 2.7 | i | 2.5 | 0.7 | -3
Cc1ccccc1-c1nnc(SCCC(=O)N2CCOCC2)o1 | -4 | -7 | -6.9 | 5% | 1.0 | i | -0.6 | 0.69 | -7
COC(=O)[C@]12CCCCC=C1N(Cc1ccc(Cl)cc1Cl)C(=O)[C@H](CC(=O)NCCc1ccccc1OC)C2 | 34 | 18 | 4.4 | · | -0.1 | i | -0.9 | · | ·
COc1ccc(Nc2nccc(-c3ccc(C#N)cc3)n2)cc1 | 6 | 6 | -0.6 | · | -0.4 | i | 0.0 | 0.66 | -14
O=C(Nc1cccc(Cl)c1)N(Cc1nc2ccccc2c(=O)[nH]1)Cc1cccs1 | · | · | · | 3% | 2.8 | · | · | 0.66 | -1
CCOC(=O)CCCCC(=O)c1[nH]c(=O)[nH]c1Cn1ccnc1 | · | · | · | -3% | -0.2 | · | · | 0.68 | 18
Cc1cc(=O)n2nc(N3CCCC3C(=O)NCCCN3CC(C)CC(C)C3)sc2n1 (stereo not drawn) | · | · | · | -1% | -1.2 | · | · | 0.67 | 0
CCc1ccc(OCc2nnc(SCC(=O)NC3CCCCC3)o2)cc1 | 0 | -2 | 0.2 | · | -0.3 | i | -2.0 | 0.69 | -1
C[C@@H]1CN([C@H](C)CO)C(=O)c2cc(NS(C)(=O)=O)ccc2O[C@H]1CN(C)Cc1ccncc1 | 1 | -11 | -0.2 | · | · | i | -21 | · | ·
C=Cn1cc[n+](CC(=O)c2ccc(Cl)cc2)c1 | 20 | 14 | 3.4 | · | 4.0 | i | 3.5 | 0.61 | ·
O=C(COc1ccc(N2CC(C(=O)O)CC2=O)cc1)Nc1cccc(C(F)(F)F)c1 (stereo not drawn) | · | · | · | 10% | 2.7 | · | · | 0.68 | -6
NS(=O)(=O)c1ccc(CCNc2nc(CN3CCCCC3)nc3sc4c(c23)CCC4)cc1 | 6 | 7 | 9.9 | -5% | 16 | i | 2.1 | 0.71 | 2
CC(=O)c1ccc(NC(=O)C(C)OC(=O)c2ccc3c(c2)nc(C)n3-c2ccccc2)cc1 (stereo not drawn) | -10 | -7 | 16 | · | 2.0 | i | -10 | 0.7 | -12
CCNC(=O)c1cc2c(c(-c3cccc(-c4ccncc4)c3)n1)[C@@H](CCO)N(S(=O)(=O)CC)C2 | -5 | -8 | -1.7 | · | · | i | 0.3 | · | ·
Cc1cc(=S)cc(C)n1CCCO | · | · | · | -3% | 4.2 | · | · | 0.72 | 0
Cc1nnsc1C(=O)N/N=C/c1ccc2ccccc2c1O | · | · | · | ? | 67* | · | · | · | -45
Cc1ccc(C(=O)OCC(=O)N2CC(C)CC(C)C2)cc1S(=O)(=O)N1CCCCC1 (stereo not drawn) | -26 | -33 | -7.0 | 1% | 0.7 | i | 1.2 | 0.7 | -62
CN(C)CC(C)(C)CNC(=O)c1cc(=O)c2ccccc2o1 | · | · | · | 0% | -1.6 | · | · | 0.65 | -15
CC(=O)N1N=C(c2ccccc2)OC1c1ccc([N+](=O)[O-])s1 (stereo not drawn) | · | · | · | 6% | -2.6 | · | · | 0.51* | -37
Cc1noc(C)c1NC(=O)Nc1ccc2c(c1)C(=O)N([C@@H](C)CO)C[C@H](C)[C@H](CN(C)S(=O)(=O)c1c(C)noc1C)O2 | 2 | 5 | -0.1 | · | · | i | 4.2 | · | ·
C[C@@H]1CN([C@H](C)CO)C(=O)c2cc(N(C)C)ccc2O[C@@H](C)CCCCO[C@H]1CN(C)C(=O)Cc1ccccc1 | 0 | 11 | 1.0 | · | · | i | 2.0 | · | ·
O=C(Nc1ccc(N2CCOCC2)cc1N1CCOCC1)c1ccc(Br)cc1 | 19 | 22 | 2.6 | -7% | 1.0 | i | -1.1 | 0.73 | -9
CC(C)N(C(=O)C[n+]1ccsc1N)c1ccccc1 | 20 | 12 | 0.9 | -8% | -3.8 | i | -0.3 | 0.7 | -10
CN1C(=S)SC(N2OC3C(=O)N(c4ccccc4)C(=O)C3C2c2ccc(Cl)cc2)C1(C)C (stereo not drawn) | · | · | · | -5% | 2.3 | · | · | 0.71 | 0
CCN(CC)C(=O)[C@H]1C[C@H](CC(=O)NCCCOC)C(=O)N2CCc3c([nH]c4cc(CCC(=O)N(C)C)ccc34)[C@]12C | 8 | 12 | -2.0 | -4% | -1.1 | i | -2.3 | 0.68 | ·
CN(c1ccccc1C(=O)Nc1ccccc1C(=O)NCc1ccco1)S(C)(=O)=O | · | · | · | 0% | 1.3 | · | · | 0.64 | -6
O=C(CSc1ncnc2nc[nH]c12)c1ccccc1 | · | · | · | 1% | -2.5 | · | · | 0.68 | 2
N=C1C(c2nc3ccccc3s2)=C(O)CN1Cc1ccccc1 | · | · | · | 2% | -1.1 | · | · | 0.75 | -4
CC(C)Oc1ccc(CNC2CCOC(C)(C)C2)cc1 (stereo not drawn) | · | · | · | 2% | -2.3 | · | · | 0.69 | -11
CC(=O)c1ccc2c(c1)CC1(C2)Cc2cc3c(cc2C1)C(=O)CC3 (stereo not drawn) | -22 | -57 | 10 | · | -1.0 | i | 9.2 | · | ·
Cc1ccc2c(C(=O)CN3CCCCC3CCO)c(C)[nH]c2c1 (stereo not drawn) | · | · | · | 5% | 7.5 | · | · | 0.68 | -7
CCn1c(C)nc2cc(C(=O)OCCC(F)(F)F)ccc21 | · | · | · | 17% | -1.4 | · | · | 0.69 | -5
CC(=O)c1sc(Nc2ccccc2)nc1C | 0 | -1 | -4.1 | · | 6.5 | · | -2.1 | · | ·
CCCC(C(=O)Nc1cc(S(=O)(=O)N2CCOCC2)ccc1OC)c1ccccc1 (stereo not drawn) | 9 | 12 | 2.8 | -1% | 3.5 | i | -0.9 | 0.72 | 0
CCOC(=O)c1ccc(NC(=S)Nc2ccccc2)cc1 | 6 | 9 | 5.7 | -5% | 2.1 | i | -8.4 | 0.65 | 0
Cc1ccc(OCCNC(=O)C(C)SCC(=O)Nc2ccc(F)cc2)cc1 (stereo not drawn) | -11 | -22 | -0.4 | · | -2.3 | i | -1.0 | 0.7 | 3
CC(C)Oc1snc(Cl)c1C(N)=O | · | · | · | 33% | 1.4 | · | · | 0.75 | -9
C=CCn1c(C)cc(C(=O)COC(=O)c2ccc3c(c2)NC(=O)CS3)c1C | 12 | 3 | -3.8 | ? | 0.0 | i | -8.0 | 0.66 | 98*
Cc1ccc(C2=NN(C3=NN=C(N)Cc4ncnn43)C(O)(C(F)(F)F)C2)cc1 (stereo not drawn) | 0 | 2 | -0.8 | -2% | -1.2 | i | -4.8 | 0.72 | -46

6 records picked at random from those above, as already listed:
SMILES | rRNA inh HTS | rRNA inh HTS OD600 | rRNA inh HTS RFP | Vif TR-FRET | HNF4A DNA FP | FGF22 binding | MLL AF4-AF9 inh | Ecoli growth | ALR H2O2 inh
CC(C)Oc1ccc(CNC2CCOC(C)(C)C2)cc1 (stereo not drawn) | · | · | · | 2% | -2.3 | · | · | 0.69 | -11
CCn1c(C)nc2cc(C(=O)OCCC(F)(F)F)ccc21 | · | · | · | 17% | -1.4 | · | · | 0.69 | -5
Cc1ccc(C2=NN(C3=NN=C(N)Cc4ncnn43)C(O)(C(F)(F)F)C2)cc1 (stereo not drawn) | 0 | 2 | -0.8 | -2% | -1.2 | i | -4.8 | 0.72 | -46
C=CCn1c(C)cc(C(=O)COC(=O)c2ccc3c(c2)NC(=O)CS3)c1C | 12 | 3 | -3.8 | ? | 0.0 | i | -8.0 | 0.66 | 98*
CC(=O)c1sc(Nc2ccccc2)nc1C | 0 | -1 | -4.1 | · | 6.5 | · | -2.1 | · | ·
CCOC(=O)c1ccc(NC(=S)Nc2ccccc2)cc1 | 6 | 9 | 5.7 | -5% | 2.1 | i | -8.4 | 0.65 | 0
